Vif A3G = inhibitors of Vif binding to APOBEC3G peptide, primary screen, biochemical, TR-FRET, GST-Vif 1-94, biotin-A3G peptide, dose response retest (AID 1117319). TR-FRET GST-Vif / biotin-A3G peptide binding; higher % means a stronger effect; test concentration not given here; strong numbers were not always called active. one-dose inhibition, %; IC50 in µM for titrated hits. 260,000 tested, 0.57% active;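 active = above the screen mean plus three standard deviations and confirmed in dose response; inconclusive = results disagree or hit not tested in dose response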;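 also: Vif residues 1-94 fused to GST binding biotinylated APOBEC3G peptide 110-148; 0% = full assay without inhibitor and 100% = GST in place of GST-Vif; retest series ran down from 100 µM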
E coli growth = E. coli growth inhibition | 330,000 tested, 0.21% active | Escherichia coli growth, OD600, 23 h; stronger effect = lower value | OD600 absorbance (no concentration beside the values);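 active = OD600 absorbance below the run mean of sample wells minus 3.6 SD, in any replicate, cut at about 0.56 in these data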;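 also: stock transfer was 300 nL into about 60 µL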
LANA-H2B inh = blocks KSHV LANA binding to histone H2A/H2B; Q9QR71; cell-free LANA-H2A/H2B peptide, fluorescence polarization; inhibition, % (concentration not given with the values); 320,000 tested, 0.6% active; AID 2629; in the data active = inhibition mostly above about 10%, no sharp cut-off; inactive = mostly below about 6.7%;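 also: stock transfer was 7.5 nL into about 10 µL; 0% = median of vehicle wells and 100% = median of positive control wells; one replicate is shown; the record names a cut of 25% in any replicate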
HNF4A DNA FP = change in binding of human HNF4 alpha to DNA | P41235 | HNF4a-FITC DNA binding, fluorescence polarization, 1 h | activity change, % at 10 µM | 360,000 tested, 0.3% active | AID 1224865; in the data active = activity change above about 30%, passing the limit was not always enough;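 also: controls were the assay level and a saturating level of protein; the project sought stronger binding though the title names inhibitors; some compounds called inactive have numbers as strong as hits; positive values seem to mean higher polarization but the record does not say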
Target sequence (P41235 whole entry, looked up): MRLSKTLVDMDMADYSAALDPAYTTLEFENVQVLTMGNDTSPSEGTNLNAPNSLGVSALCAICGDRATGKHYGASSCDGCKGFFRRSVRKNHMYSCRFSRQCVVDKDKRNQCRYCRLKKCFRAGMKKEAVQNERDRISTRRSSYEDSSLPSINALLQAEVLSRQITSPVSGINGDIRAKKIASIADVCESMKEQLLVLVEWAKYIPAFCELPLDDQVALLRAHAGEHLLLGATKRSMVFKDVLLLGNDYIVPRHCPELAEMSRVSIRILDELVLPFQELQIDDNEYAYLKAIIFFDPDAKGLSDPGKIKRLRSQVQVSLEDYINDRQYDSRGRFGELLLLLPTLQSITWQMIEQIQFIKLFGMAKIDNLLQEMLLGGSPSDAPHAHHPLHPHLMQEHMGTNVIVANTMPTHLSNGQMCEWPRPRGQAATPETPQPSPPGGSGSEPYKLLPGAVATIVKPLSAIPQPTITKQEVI
UCH37 inh = human UCH37 deubiquitinating enzyme inhibition | purified proteasome/UCH37, Ub-AMC cleavage fluorescence | AID 588478 | inhibition, % (test concentration not listed) | Q9Y5K5 | 330,000 tested, 0.33% active;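 active = mean of two replicates above 20%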;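 also: 0% = compound-free wells with enzyme and 100% = wells lacking proteasome; stock transfer was 100 nL into about 20 µL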
Target sequence (Q9Y5K5 whole entry, looked up): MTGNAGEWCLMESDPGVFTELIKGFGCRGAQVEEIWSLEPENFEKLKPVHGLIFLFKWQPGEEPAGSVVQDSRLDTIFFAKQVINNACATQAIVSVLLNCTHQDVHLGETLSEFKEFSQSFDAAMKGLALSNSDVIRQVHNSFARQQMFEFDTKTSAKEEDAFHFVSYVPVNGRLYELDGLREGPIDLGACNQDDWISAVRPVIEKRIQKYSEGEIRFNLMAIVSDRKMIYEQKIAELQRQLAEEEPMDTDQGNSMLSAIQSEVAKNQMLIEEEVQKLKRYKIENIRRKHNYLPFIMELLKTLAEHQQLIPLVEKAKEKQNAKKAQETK
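Signal – fluorescence, ex 355 nm, em 460 nm · System – Proteasome-bound UCH37 · Input – 0.15 nM proteasome as dispensed · Timing – 30 min preincubation with enzyme, 25 min cleavage at room temperature · Read-out basis – percent inhibition of cleavage signal versus uninhibited and no-proteasome wells · Medium – Tris-HCl pH 7.4 with ATP-MgCl2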
A1 inh = inhibitors of the anti-apoptotic protein A1, read as caspase activation; 330,000 tested, 0.066% active; caspase activation, % (test concentration not listed); MEF A1-2A-BIM cells, Caspase-Glo 3/7 luminescence, 3 h; percent of clofoctol response, vehicle zero;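 active = over half of replicate activation scores above 10%, or exactly half above 10 with the replicate mean above 10; inconclusive = replicate mean below 10 yet half the replicates above 10; inactive = over half of replicates below 10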;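 also: wells of about 30 µL received 50 nL stock; many hits fall short of the cut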
B2AR ag = activates human beta-2 adrenergic receptor causing internalization | P07550 | Am2.2-beta2AR cells, FAP receptor internalization, flow cytometry; reference of the scale not given here | response, % (concentration not given with the values) | 340,000 tested, 0.43% active | AID 504454;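 active = response above a set limit, near 3 SD of response in nonfluorescent compounds, cut at about 42% in these data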;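 also: stock transfer was 100 nL into about 11 µL; a reference agonist was the positive control; negative values mostly stem from fluorescent compounds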
Starred values were filed as active, the others as inactive.

What do the screens show for `CCCc1cc(=O)n2[nH]c(C)c(-c3ccc(OC)cc3)c2n1`?
Vif A3G: -3%; LANA-H2B inh: 4.2; HNF4A DNA FP: 1.8; A1 inh: -1.0; B2AR ag: 21

How did CCC(C(=O)NC(C)(C)C)N(C(=O)c1ccc(Cl)nc1)C1CCCC1 (stereo not drawn) do in these assays?
Vif A3G: 12%; E coli growth: 0.72; LANA-H2B inh: 0.3; HNF4A DNA FP: -2.1; UCH37 inh: -0.2; A1 inh: -0.1; B2AR ag: -1

Results for CNC(=O)COc1cccc(C(=O)NCc2ccccc2)c1 ?
E coli growth: 0.68; LANA-H2B inh: 2.1; HNF4A DNA FP: 0.3; UCH37 inh: -1.2; A1 inh: 0.6; B2AR ag: 2

What do the screens show for `O=C(COC(=O)c1ccccc1Cl)NC1CCCCCC1`?
E coli growth: 0.72; LANA-H2B inh: 4.0; HNF4A DNA FP: 3.9; UCH37 inh: 0.4; A1 inh: 2.2; B2AR ag: -9

How did CCc1cccc(NC(=O)Nc2cccs2)c1 do in these assays?
Vif A3G: 10%; E coli growth: 0.58; LANA-H2B inh: -2.4; HNF4A DNA FP: 1.3; UCH37 inh: 0.6; A1 inh: -0.7; B2AR ag: -9

How did COCCn1c(=N)c(C(=O)NCc2ccco2)cc2c(=O)n3cc(C)ccc3nc21 do in these assays?
Vif A3G: 15%; E coli growth: 0.66; LANA-H2B inh: 2.8; HNF4A DNA FP: -2.3; UCH37 inh: inactive; A1 inh: -1.9; B2AR ag: -5

How did N#Cc1cccc(C(c2nnnn2Cc2ccccc2)N2CCCC2)c1 (stereo not drawn) do in these assays?
Vif A3G: 3%; E coli growth: 0.71; LANA-H2B inh: 5.2; HNF4A DNA FP: 1.0; UCH37 inh: 1.2; A1 inh: 0.1; B2AR ag: 7

Results for CC1=C(C(=O)OCC2CCCO2)C(c2coc3ccccc3c2=O)C2=C(CC(C)(C)CC2=O)N1 (stereo not drawn) ?
Vif A3G: 13%; E coli growth: 0.65; LANA-H2B inh: -2.6; HNF4A DNA FP: 4.8; UCH37 inh: 3.0; A1 inh: -0.5; B2AR ag: -17

What do the screens show for `O=S(Cc1ccc(Br)cc1)Cc1nnc(SCc2c(F)cccc2Cl)n1-c1ccccc1` (stereo not drawn)?
E coli growth: 0.73; LANA-H2B inh: -4.1; HNF4A DNA FP: 3.0; UCH37 inh: 3.8; A1 inh: 1.5; B2AR ag: 35

What do the screens show for `CCCOc1ccc(C(=O)NNC(=S)NC(=O)CC)cc1`?
Vif A3G: 4%; E coli growth: 0.4*; LANA-H2B inh: -11; HNF4A DNA FP: -0.8; UCH37 inh: -39; A1 inh: 0.6; B2AR ag: -3

Results for CN1C2CCC1CC(NC(=O)c1cccc(C(F)(F)F)c1)C2 (stereo not drawn) ?
Vif A3G: 4%; E coli growth: 0.68; LANA-H2B inh: 0.4; HNF4A DNA FP: 0.6; UCH37 inh: 2.9; A1 inh: 0.4; B2AR ag: 10

How did CSc1c(C#N)c(N)nc2sc(C(=O)c3ccccc3)c(N)c12 do in these assays?
Vif A3G: -2%; LANA-H2B inh: 7.3; HNF4A DNA FP: 7.7; A1 inh: 0.1; B2AR ag: 2

How did CC(C)CCN1CCN(Cc2ccc3nsnc3c2)CC1CCO (stereo not drawn) do in these assays?
Vif A3G: -2%; E coli growth: 0.68; LANA-H2B inh: 4.7; HNF4A DNA FP: -0.1; UCH37 inh: 1.1; A1 inh: 0.3; B2AR ag: 1

Results for COC(=O)CN(c1ccccc1)S(=O)(=O)c1ccc(F)cc1 ?
Vif A3G: 24%; E coli growth: 0.69; LANA-H2B inh: 2.7; HNF4A DNA FP: -1.3; UCH37 inh: 1.9; A1 inh: 0.2; B2AR ag: 0

What do the screens show for `COCCN(C(=O)CCc1nnc(Cc2c[nH]c3ccccc23)o1)C(C)C`?
E coli growth: 0.66; LANA-H2B inh: -0.6; HNF4A DNA FP: 0.1; UCH37 inh: 2.2; A1 inh: 0.0; B2AR ag: -4

What do the screens show for `O=[N+]([O-])c1ccc(C=Nc2ccc(Cl)cc2Cl)s1`?
Vif A3G: 0%; E coli growth: 0.5; LANA-H2B inh: -0.3; HNF4A DNA FP: -1.9; UCH37 inh: 9.1; A1 inh: -0.2; B2AR ag: 4

Results for CCOc1c(C)cnc2c1c(=O)n(Cc1ccccc1Cl)c(=O)n2C ?
Vif A3G: -18%; E coli growth: 0.69; LANA-H2B inh: -1.2; HNF4A DNA FP: -2.6; UCH37 inh: 2.0; A1 inh: -0.6; B2AR ag: -6

Results for Nc1ccc2cccc(O)c2c1 ?
Vif A3G: 14%; E coli growth: 0.68; HNF4A DNA FP: -29; UCH37 inh: -8.2; B2AR ag: 8

What do the screens show for `CCC(Sc1nc2ccc(N)cc2s1)C(=O)Nc1nccs1` (stereo not drawn)?
Vif A3G: 0%; E coli growth: 0.7; LANA-H2B inh: -1.9; HNF4A DNA FP: 1.3; UCH37 inh: 4.2; A1 inh: -0.3; B2AR ag: 7

How did Cc1cc(C)n2nc(SCc3ncc(-c4ccccc4)o3)nc2n1 do in these assays?
E coli growth: 0.71; LANA-H2B inh: -0.7; HNF4A DNA FP: 2.6; UCH37 inh: 2.3; A1 inh: 1.9; B2AR ag: -19

Part of the list above in order of length of the SMILES, rising.
What do the screens show for `O=C(COC(=O)c1ccccc1Cl)NC1CCCCCC1`?
E coli growth: 0.72; LANA-H2B inh: 4.0; HNF4A DNA FP: 3.9; UCH37 inh: 0.4; A1 inh: 2.2; B2AR ag: -9

What do the screens show for `CCCc1cc(=O)n2[nH]c(C)c(-c3ccc(OC)cc3)c2n1`?
Vif A3G: -3%; LANA-H2B inh: 4.2; HNF4A DNA FP: 1.8; A1 inh: -1.0; B2AR ag: 21

How did CCC(C(=O)NC(C)(C)C)N(C(=O)c1ccc(Cl)nc1)C1CCCC1 (stereo not drawn) do in these assays?
Vif A3G: 12%; E coli growth: 0.72; LANA-H2B inh: 0.3; HNF4A DNA FP: -2.1; UCH37 inh: -0.2; A1 inh: -0.1; B2AR ag: -1

(list continues)
What do the screens show for `Cc1ccc(S(=O)(=O)N2CCN(C(=O)COC(=O)C3CC3C)CC2)c(C)c1` (stereo not drawn)?
Vif A3G: -8%; E coli growth: 0.66; LANA-H2B inh: -1.7; HNF4A DNA FP: 0.6; UCH37 inh: 2.2; A1 inh: -0.4; B2AR ag: 1

How did CCOc1ncccc1C(=O)OCC(=O)Nc1ccc(C(N)=O)cc1 do in these assays?
Vif A3G: 15%; E coli growth: 0.67; LANA-H2B inh: -1.8; HNF4A DNA FP: 5.3; UCH37 inh: 3.2; A1 inh: 0.3; B2AR ag: 3

How did COc1ccc(C(CNC(=O)COc2cccc(C(F)(F)F)c2)N2CCCC2)cc1 (stereo not drawn) do in these assays?
Vif A3G: -8%; E coli growth: 0.67; LANA-H2B inh: -3.8; HNF4A DNA FP: 2.5; UCH37 inh: 3.2; A1 inh: 0.5; B2AR ag: 11

Results for Nn1c(SCc2cccc(Br)c2)nnc1-c1cccnc1 ?
Vif A3G: -1%; E coli growth: 0.66; LANA-H2B inh: -2.0; HNF4A DNA FP: 1.5; UCH37 inh: 4.6; A1 inh: -0.7; B2AR ag: 14

How did COc1ccc(NC(=O)CN(C)CC(=O)Nc2cccc(S(=O)(=O)N(C)c3ccccc3)c2)cc1 do in these assays?
Vif A3G: 4%; E coli growth: 0.68; LANA-H2B inh: 3.0; HNF4A DNA FP: 2.9; UCH37 inh: 2.1; A1 inh: -0.7; B2AR ag: 7

What do the screens show for `Cc1cc(NC(=O)c2c(F)cccc2Cl)no1`?
E coli growth: 0.68; LANA-H2B inh: -5.7; HNF4A DNA FP: 8.4; UCH37 inh: 4.2; A1 inh: 0.6; B2AR ag: -1

What do the screens show for `Cc1ccc(CNC(=O)CN(C(=O)C2(C)CC(=O)N=C3C=CC=CN32)c2cccc(C)c2C)cc1` (stereo not drawn)?
Vif A3G: 3%; E coli growth: 0.66; LANA-H2B inh: 1.8; HNF4A DNA FP: 0.3; UCH37 inh: inactive; A1 inh: -0.1; B2AR ag: 2

How did CCOC(=O)C1CCN(c2c(NCCN3CCCCC3C)c(=O)c2=O)CC1 (stereo not drawn) do in these assays?
Vif A3G: 18%; E coli growth: 0.68; LANA-H2B inh: -2.6; HNF4A DNA FP: 3.5; UCH37 inh: 3.6; A1 inh: 0.7; B2AR ag: 7

How did COCCn1c(=O)[nH]c2cc(C(=O)NCc3cccnc3)ccc2c1=O do in these assays?
Vif A3G: 2%; E coli growth: 0.66; LANA-H2B inh: -2.8; HNF4A DNA FP: 3.0; UCH37 inh: -22; A1 inh: 0.8; B2AR ag: 3

Results for CC(C)c1ccc(NC(=O)CCNS(=O)(=O)c2cccc3nonc23)cc1 ?
Vif A3G: 11%; E coli growth: 0.63; LANA-H2B inh: -1.5; HNF4A DNA FP: -0.3; UCH37 inh: 1.8; A1 inh: 1.1; B2AR ag: -4

Results for Cc1csc2nc(CNS(=O)(=O)c3ccc4c(c3)OCCO4)cn12 ?
Vif A3G: 6%; E coli growth: 0.76; LANA-H2B inh: 0.0; HNF4A DNA FP: 2.4; UCH37 inh: 4.4; A1 inh: 0.1; B2AR ag: -8

What do the screens show for `CC(=O)Nc1cc(C(=O)N2CCCC2)ccc1Sc1ccc(Cl)cc1`?
Vif A3G: -3%; E coli growth: 0.64; LANA-H2B inh: -2.3; HNF4A DNA FP: 1.1; UCH37 inh: 5.2; A1 inh: 0.0; B2AR ag: -11

How did Cc1ccc2nc(NNC(=O)c3ccc4c(c3)OCCO4)sc2c1 do in these assays?
Vif A3G: inconclusive; E coli growth: 0.7; LANA-H2B inh: 3.8; HNF4A DNA FP: 1.3; UCH37 inh: 6.9; A1 inh: 0.4; B2AR ag: 9

How did CN(CCC1CCOCC1)Cc1nc(Cc2ccccc2F)no1 do in these assays?
Vif A3G: 7%; E coli growth: 0.66; LANA-H2B inh: -11; HNF4A DNA FP: -0.6; UCH37 inh: 5.9; A1 inh: 1.1; B2AR ag: -3

What do the screens show for `CN(C(=O)CSc1nc(N)nn1-c1ccccc1)c1ccccc1`?
Vif A3G: inconclusive; E coli growth: 0.73; LANA-H2B inh: -0.7; HNF4A DNA FP: 2.5; UCH37 inh: 3.0; A1 inh: -0.2; B2AR ag: -8

How did CCN(c1ccccc1)S(=O)(=O)c1ccc(Cl)c(C(=O)NCc2ccco2)c1 do in these assays?
E coli growth: 0.68; LANA-H2B inh: -3.2; HNF4A DNA FP: 5.0; UCH37 inh: 2.1; A1 inh: -0.2; B2AR ag: -4

What do the screens show for `COc1ccccc1OCCNC(=O)c1c(-c2ccccc2Cl)noc1C`?
Vif A3G: 1%; E coli growth: 0.73; LANA-H2B inh: 4.6; HNF4A DNA FP: -5.2; UCH37 inh: -0.9; A1 inh: 0.0; B2AR ag: 0

How did COc1ccc(CN2CCNC(=O)C2CC(=O)NCCCn2cccn2)c(OC)c1 (stereo not drawn) do in these assays?
Vif A3G: 1%; E coli growth: 0.65; LANA-H2B inh: -0.1; HNF4A DNA FP: 2.1; UCH37 inh: -3.7; A1 inh: 0.1; B2AR ag: -5

Results for O=C1NC[C@H](c2ccccc2)N(CCc2cccc(F)c2)C1=O ?
Vif A3G: -7%; LANA-H2B inh: -2.7; HNF4A DNA FP: 5.2; UCH37 inh: 0.5; A1 inh: 0.1; B2AR ag: -1

Screens as filed in PubChem.
